Bioassay records from PubChem.
CDC25B-CDK2 inh: human CDC25B-CDK2/CyclinA binding inhibition; P30305+P24941; HTRF CDC25B-CDK2/CyclinA binding, anti-His/anti-Flag; active compounds read high; z-score (concentration not given with the values); 94,000 compounds, 0.72% hits; AID 1259370;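 note: score is relative to mean and SD of negative controls; strong numbers were not always called active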
HIV TAR-Tat: HIV-1 TAR-Tat binding disruption; HIV-1 TAR RNA, Tat peptide displacement FRET; active compounds read high; z-score (concentration not given with the values); 100,000 compounds, 0.6% hits;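 note: score is relative to mean and SD of negative controls; some compounds called inactive have numbers as strong as hits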
An asterisk follows results filed as active; . = not tested or not shown.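 Rule for the calls: active = z-score from 3 up in half or more of its runs; inactive = the rest.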

Values run as follows: CDC25B-CDK2 inh, HIV TAR-Tat
> COc1ccc(C(CC(=O)c2cccs2)SCc2ccco2)cc1 (configuration not stated)
    -3.2, 0.69
> Cc1cc(CNC(=O)Nc2ccc3c(c2)OCCO3)c(C)n1-c1cccc(Cl)c1
    ., 0.97
> CN(CC(=O)NC1CCCc2ccccc21)S(=O)(=O)c1ccc2c(c1)CCCC(=O)N2 (configuration not stated)
    ., 1.9
> COc1ccc(S(=O)(=O)c2cn(C)c3ccc(OC)cc3c2=O)cc1
    0.01, 0.32
> Cc1ccccc1CSc1nc2n(n1)C(c1ccc(F)cc1)C1=C(CCCC1=O)N2 (configuration not stated)
    -1.6, -1.1
> COC(=O)c1cnc(Oc2ccc(N)cc2)cc1C(F)(F)F
    -0.6, .
> O=C(NCC(c1ccco1)N1CCCC1)c1cc(-c2ccc3c(c2)OCCO3)on1 (configuration not stated)
    -0.39, -2.7
> Cc1ccc(CNC(=O)c2ccc(C)c(NC3=NC4CS(=O)(=O)CC4S3)c2)cc1 (configuration not stated)
    -1.3, -1.2
> Cc1cc(C)c(NC(=O)c2oc3c(c2C)-c2[nH]ncc2CC3)c(C)c1
    -0.07, 0.33
> O=C(NCc1noc2ccccc12)Nc1nc2ccccc2s1
    ., 0.17

(more compounds)
Values run as follows: CDC25B-CDK2 inh, HIV TAR-Tat
> CS(=O)(=O)Nc1cccc(C2=NN(C(=O)c3cccs3)C(c3ccc(F)cc3)C2)c1 (configuration not stated)
    -1.9, .
> N#CCOc1ccc(C(F)(F)F)cn1
    -2.4, .
> COc1ccc(/C=C2\N=C(SC)SC2=O)cc1OC
    0.64, 0.01
> O=C1CN(C(=O)C2CCCO2)c2ccccc2N1 (configuration not stated)
    -1.3, 0.66
> CCOc1ccccc1N1C(=O)C2C3c4ccccc4C(CO)(c4ccccc43)C2C1=O (configuration not stated)
    0.81, -1.6
> CCCn1c2ccccc2c2cnn(CC(=O)N3CCN(C4CCCCC4)CC3)c(=O)c21
    ., 6.7
> CCOc1ccc(/C=C/c2nc(C#N)c(NC(C)CC)o2)cc1 (configuration not stated)
    -0.55, 1.2
> CCOC(=O)N1CCN(C(=O)c2oc3ccc(S(=O)(=O)N4CCOCC4)cc3c2C)CC1
    -0.54, -0.92
> Cc1oc2ncnc(N3CCOCC3)c2c1C(=O)N(C)c1ccc(F)cc1
    ., 0.77
> CCCCNC(=O)CCn1c(=O)[nH]c2ccsc2c1=O
    0.18, .

The results go on.
Values run as follows: CDC25B-CDK2 inh, HIV TAR-Tat
> O=S1(=O)CCC(S(=O)(=O)NC2CCCCCCCCCCC2)C1 (configuration not stated)
    -2, 1.6
> CCC(C(=O)NCCC1=CCCCC1)n1nc(C)c2sc3ccccc3c2c1=O (configuration not stated)
    -0.1, 2.9
> O=C(CCSc1nnc(NC(=O)Cn2c(=O)oc3ccccc32)s1)Nc1ccccc1
    0.08, 1.6
> NC(=O)Cn1cnc2c(nnn2-c2cccc(Cl)c2)c1=O
    -0.85, 0.09
> O=C(CSc1ncnc2c1oc1ccccc12)NCC1CCCO1 (configuration not stated)
    -0.8, .
> NC(C(=O)O)C1CCCCC1 (configuration not stated)
    -0.39, .
> CCOc1ccc(C2c3c(-c4cc(C)ccc4O)n[nH]c3C(=O)N2Cc2cccnc2)cc1OCC (configuration not stated)
    -0.32, 2.5
> O=C(O)CCc1ccc(-c2ccc(Br)cc2)n1-c1cccc(C(=O)O)c1
    -0.87, .
> COc1cccc(N2CCN(C(=O)CC3(CC4=NS(=O)(=O)c5ccccc5N4)CCCC3)CC2)c1
    ., -0.55
> CN(C)c1ccc(NC2CC(=O)N(c3ccc(F)cc3)C2=O)cc1 (configuration not stated)
    -2, -2.3

The list continues.
Values run as follows: CDC25B-CDK2 inh, HIV TAR-Tat
> O=C(CCCCn1c(=O)[nH]c2ccsc2c1=O)NCc1ccc2c(c1)OCO2
    0.08, 0.51
> c1ccc2c(-c3csc(-c4ccc5c(c4)OCCO5)n3)csc2c1
    -0.46, .
> O=C(CSc1nnnn1-c1ccc(F)cc1)Nc1ccc2c(c1)OCO2
    0.08, 0.68
> Fc1ccc2onc(-c3cnn(-c4ccccc4)c3)c2c1
    0.96, 0.27
> Cc1ccc(CN2C(=O)c3oc4ccc(F)cc4c(=O)c3C2c2cccc(O)c2)cc1 (configuration not stated)
    0.32, 0.78
> CC1=CC(c2ccccc2)n2nc(N3C(=O)C4CCCCC4C3=O)nc2N1 (configuration not stated)
    -0.51, .
> O=C(CSc1c2c(nc3ccc(Cl)cc13)CCCC2)Nc1nccs1
    -1.1, -0.02
> Cc1ccc(S(=O)(=O)N(CCC(C)C)CCS(=O)(=O)N2CCNCC2)cc1
    ., 1
> CC1CC(C)CN(C(=O)c2cc(S(=O)(=O)N3CCCC3)cn2C)C1 (configuration not stated)
    ., 0.96
> Cc1cccc(N2CCN([C@H]3CS(=O)(=O)C[C@@H]3S(=O)(=O)c3ccc(F)c(C)c3)CC2)c1
    -1.2, -1.1

Reprinted from the part before: 4 entries, followed by the next part.
Values run as follows: CDC25B-CDK2 inh, HIV TAR-Tat
> O=C(CSc1c2c(nc3ccc(Cl)cc13)CCCC2)Nc1nccs1
    -1.1, -0.02
> Cc1ccc(S(=O)(=O)N(CCC(C)C)CCS(=O)(=O)N2CCNCC2)cc1
    ., 1
> CC1CC(C)CN(C(=O)c2cc(S(=O)(=O)N3CCCC3)cn2C)C1 (configuration not stated)
    ., 0.96
> Cc1cccc(N2CCN([C@H]3CS(=O)(=O)C[C@@H]3S(=O)(=O)c3ccc(F)c(C)c3)CC2)c1
    -1.2, -1.1
> O=C1CSc2ccc(S(=O)(=O)N3CCC(N4CCCCC4)CC3)cc2N1
    ., -2.1
> COc1ccc(C2CC(=O)C3=C(C2)NC(=O)CC3c2ccc(O)c(OC)c2)cc1 (configuration not stated)
    -1.7, -0.28
> CCOC(=O)C1CCN(S(=O)(=O)c2ccc3c(c2)N(C(C)=O)CCCS3)CC1
    ., 0.37
> NC(=O)c1nc(-c2cccc(F)c2)nc2c1[nH]c(=O)n2-c1ccccc1
    0.27, .
> CC1(C)C2CC[C@]3(C)C(C(=O)C=C4[C@@H]5C[C@@](C)(C(=O)O)CC[C@]5(C)CC[C@]43C)[C@@]2(C)CC[C@@H]1OC(=O)CCC(=O)O (some centres not stated)
    ., 9
> Cc1ccccc1NC(=O)CSC1=C(C#N)C(c2ccsc2)CC(=O)N1 (configuration not stated)
    -0.66, .
> COc1ccc(CN2COc3ccc(OC)cc3C2)cc1
    -2.3, .
> Cc1ncc2c(c1O)COC(C)OC2 (configuration not stated)
    2, .
> O=C(CC1(O)C(=O)N(CCc2ccccc2)c2ccccc21)c1cccc(Br)c1 (configuration not stated)
    -2.2, .
> Fc1ccc(CN2C3=NCCCN3c3ccccc32)cc1
    -1.7, -0.28

Next results follow:
Values run as follows: CDC25B-CDK2 inh, HIV TAR-Tat
> O=S(=O)(c1ccc(-n2c(-c3ccncc3)n[nH]c2=S)cc1)N1CCCCC1
    -1.1, .
> O=C1C2C(c3ccccc3)OC3(C(=O)c4ccccc4C3=O)C2C(=O)N1c1ccccc1 (configuration not stated)
    -0.02, 0.73
> Cc1ccc2ccc(C(Nc3ccccn3)c3ccccn3)c(O)c2n1 (configuration not stated)
    -0.36, .
> COc1ccc(CCNS(=O)(=O)c2cc(-c3onc(C)c3C)ccc2OC)cc1OC
    ., 0.44
> CC1(C)CC2CC(C)(CN2C(=O)c2cc(-c3ccc(O)cc3)on2)C1 (configuration not stated)
    1.5, .
> Cc1ccc(CNc2c(-c3ccc(Cl)cc3)nc3ncccn23)cc1
    ., -1.7
> CCOC(=O)CNC(=O)CCc1cc(OC)c(OC)c(OC)c1
    -0.04, .
> CCc1nn(CCCC(=O)NCCCOC)c(=O)c2cc3occc3n12
    2.4, 1.3
> Cc1oc2ncnc(N3CCCCC3)c2c1C(=O)NC(C)C
    ., 0.27
> O=C(CSc1nc2sc3c(c2c(=O)[nH]1)CCCC3)NCCCn1ccnc1
    -2.5, -0.99

Additional records:
Values run as follows: CDC25B-CDK2 inh, HIV TAR-Tat
> O=C(CN1C(=O)CC(c2ccco2)Sc2ccccc21)Nc1ccc2c(c1)OCO2 (configuration not stated)
    -2.8, .
> CC1Cc2cc(S(=O)(=O)N3CCN(C)CC3)ccc2N1C(=O)C1CC1 (configuration not stated)
    ., 1
> O=C(/C(=N\N=C\c1ccc2c(c1)OCO2)c1ccccc1)c1ccccc1
    -0.53, .
> O=C(Cn1nc(-c2ccco2)ccc1=O)Nc1ccc(Cl)cc1
    ., 0.76
> O=c1cc(NCCC2=CCCCC2)c2ccccc2o1
    -1.1, .
> Cn1c(C(=O)N2CCC(C(N)=O)CC2)cc2sccc21
    -0.24, -0.96
> O=C(c1ccccc1)N1CCN(c2nc3nc[nH]c(=O)c3[nH]2)CC1
    -0.51, .
> CN1C(=O)c2cc(NC(=O)c3cccnc3)ccc2N2CCN=C12
    ., 1.6
> O=C(O)C1C2C=CC3(CN(Cc4cccs4)C(=O)C13)O2 (configuration not stated)
    -1.3, .
> CC1CCCCN1C(=O)Cn1c(=O)sc2ccccc21 (configuration not stated)
    5.1, 1.3

The closing 3 compounds of the part before lead into the next:
Values run as follows: CDC25B-CDK2 inh, HIV TAR-Tat
> CN1C(=O)c2cc(NC(=O)c3cccnc3)ccc2N2CCN=C12
    ., 1.6
> O=C(O)C1C2C=CC3(CN(Cc4cccs4)C(=O)C13)O2 (configuration not stated)
    -1.3, .
> CC1CCCCN1C(=O)Cn1c(=O)sc2ccccc21 (configuration not stated)
    5.1, 1.3
> O=C(c1cnn(-c2ccccc2)c1-n1cccc1)N1CCN(C2CCCCC2)CC1
    0.28, 0.36
> Cn1c(C(=O)Nc2cc(F)ccc2F)c(N2CCCC2=O)c2cc(F)ccc21
    ., 0.62
> O=C(Nc1ccccc1)C1Nc2ccccc2S(=O)(=O)N1 (configuration not stated)
    ., -1.1
> O=C(CN1C(=O)COc2ccc(Cl)cc21)Nc1ccc2[nH]c(=O)[nH]c2c1
    -0.41, -0.07
> N#CC(Nc1ccccc1)(C(F)(F)F)C(F)(F)F
    -1.6, .
> CCOC(=O)c1cc(-c2csc(COc3ccccc3)n2)on1
    -0.26, .
> CN1CCN(CCNC(=O)c2ccc(CS(=O)c3ccc(Br)cc3)o2)CC1 (configuration not stated)
    ., 0.72
> Cc1ccc(-n2nc3c(=O)n(C(C)C(=O)NC4CC4)nc(C)c3c2C)cc1 (configuration not stated)
    ., 1.4
> COc1ccc(NS(=O)(=O)c2ccc(N)cc2)nn1
    ., 2.7
> C#CCSc1nc2c(c(=O)[nH]1)C(c1cc(F)cc(F)c1)CC(=O)N2 (configuration not stated)
    -1.5, 1.3

More compounds follow:
Values run as follows: CDC25B-CDK2 inh, HIV TAR-Tat
> COc1ccccc1C(O)c1cnc(C(C)C)n1C (configuration not stated)
    -2, 1.6
> CS(=O)(=O)Oc1c(-c2ccccc2)oc2ccccc2c1=O
    -0.78, .
> COCCCNC(=O)Cn1ncc2ccc(Cl)cc21
    -0.9, 0.61
> COc1ccc(C2c3c(oc4ccccc4c3=O)C(=O)N2c2nnc(C)s2)cc1OC (configuration not stated)
    0.75, 0.65
> O=C(CCCN1CCN2CCCC2C1)c1ccc(F)cc1 (configuration not stated)
    -0.55, -6.5
> Cn1nc(C(=O)N2CCN(c3ccc(F)cc3)CC2)c2c1-c1ccccc1OC2
    -0.9, 1.1
> Cc1ccc2oc(SCC(=O)Nc3ccc(Br)cc3)nc2n1
    ., 0.78
> CCOc1ccc(S(=O)(=O)Nc2cc3c(c4ccccc24)OC2(C3)N(C)c3ccccc3C2(C)C)cc1 (configuration not stated)
    18*, .
> COc1ccc(OC)c(NC(=O)c2nn(-c3ccc(Cl)cc3)ccc2=O)c1
    2.6, 0.76
> CCCc1nc2c3ccccc3nc(-n3nc(C)cc3C)n2n1
    -2.3, -0.67

Continuation.
Values run as follows: CDC25B-CDK2 inh, HIV TAR-Tat
> O=C1C=C(c2ccc(Cl)cc2)OC2(CCCC2)O1
    0.14, .
> CCOC(=O)c1cnn(-c2nc(C)cc(C)n2)c1N
    -2, 1.7
> CC1CCCC(NC(=O)C2CCC(CNc3c(N4CCCC4)c(=O)c3=O)CC2)C1C (configuration not stated)
    -0.9, .
> Cc1ccc(OCC(=O)OCc2cc(=O)n3oc(C)cc3n2)cc1
    ., -0.04
> O=C(c1cnn2c(C(F)F)cc(-c3ccccc3)nc12)N1CCCc2ccccc21
    -2, 2
> O=C(Nc1sc2c(c1C(=O)NCc1ccco1)CCCC2)c1cc(=O)c2cc(Cl)ccc2o1
    0.5, -8.3
> Cc1ccc(-c2cc(C(F)(F)F)n3nc(C)cc3n2)cc1
    -0.77, 3.5
> Nc1c(-c2nc(-c3ccccc3F)no2)nnn1-c1ccc(Br)cc1F
    ., -0.53
> Cc1ccc(-n2ccnc(SCC(=O)c3ccc(F)cc3)c2=O)cc1C
    ., -0.27
> CN(CCCNC(=O)C1CCCN1c1nnc(N2CCCC2=O)s1)c1ccccc1 (configuration not stated)
    ., 2

Two entries picked at random from the list so far, as already listed:
Values run as follows: CDC25B-CDK2 inh, HIV TAR-Tat
> O=C(Nc1sc2c(c1C(=O)NCc1ccco1)CCCC2)c1cc(=O)c2cc(Cl)ccc2o1
    0.5, -8.3
> COc1ccc(S(=O)(=O)c2cn(C)c3ccc(OC)cc3c2=O)cc1
    0.01, 0.32

Next entries
Values run as follows: CDC25B-CDK2 inh, HIV TAR-Tat
> Clc1cc(Cl)c(-c2sc(Cl)cc2Cl)s1
    -0.08, .
> O=C(O)CCc1ccc(-c2ccc(Cl)cc2)n1-c1cccc(C(=O)O)c1
    -0.84, .
> Cc1ncc([N+](=O)[O-])n1CCC(C)C
    -1.2, 1
> CCC(C(=O)NCCCN1CCN(C)CC1)n1nc(C)n2c(cc3occc32)c1=O (configuration not stated)
    -2, 1.2
> CCOC(=O)N1CCc2c(c(=O)[nH]c3c2c(C)nn3C)C1
    1.5, -0.24
> Cc1c(NC(=O)C2CC2)c(-n2cnnc2)nn1C
    0.42, 1.2
> CN1CCN(CCNC(=O)Cn2c(=O)c3cccn3c3ccc(F)cc32)CC1
    ., 1.9
